Calb FLC: C. albicans growth modulation with fluconazole; C. albicans CaCi-2 (fluconazole-resistant clinical isolate) + fluconazole, Alamar Blue growth, 48 h; growth inhibition, % (concentration not given with the values); 300,000 tested, 0.57% active; AID 1979;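 active = most replicates above 75%; inconclusive = exactly half above 75%; inactive = most below 75%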;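 also: all wells also contain fluconazole at 8 µg/ml as a sub-toxic cotreatment; 0% = median of DMSO wells and 100% = median of geldanamycin control wells; wells of about 8 µL received 7.5 nL stock; the first replicate is given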
Ecoli rRNA inh: inhibits bacterial ribosomal RNA function over humanized ribosomes | E. coli WT GFP vs humanized-ribosome RFP mutants, fluorescence, 24 h; active compounds read low; DMSO median 0, no signal -100 | GFP signal change (wild-type ribosome), % (concentration not given with the values) | 350,000 tested, 1.6% active;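 active = significant combined selectivity score with lowered wild-type GFP, culture density cut under 30%, mutant RFP and density less affected; inactive = any of these conditions unmet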; also: one replicate is shown; some compounds called inactive have numbers as strong as hits
AF4-AF9 inh: blocks AF4 peptide binding to human AF9. P42568. AlphaScreen, biotin-AF4 peptide binding to FLAG-AF9. inhibition, % at 10 µM. 350,000 tested, 0.47% active. AID 651704;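 active = every replicate reaching a set inhibition limit, whatever the replicate mean, cut at about 25% in these data; inconclusive = mean inhibition reaches that limit but some replicates miss it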;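 also: 0% = plate neutral control median and 100% = total signal loss; the record names both 10 and 1 µM as test concentration; the first replicate is given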
Target sequence (P42568 whole entry, looked up): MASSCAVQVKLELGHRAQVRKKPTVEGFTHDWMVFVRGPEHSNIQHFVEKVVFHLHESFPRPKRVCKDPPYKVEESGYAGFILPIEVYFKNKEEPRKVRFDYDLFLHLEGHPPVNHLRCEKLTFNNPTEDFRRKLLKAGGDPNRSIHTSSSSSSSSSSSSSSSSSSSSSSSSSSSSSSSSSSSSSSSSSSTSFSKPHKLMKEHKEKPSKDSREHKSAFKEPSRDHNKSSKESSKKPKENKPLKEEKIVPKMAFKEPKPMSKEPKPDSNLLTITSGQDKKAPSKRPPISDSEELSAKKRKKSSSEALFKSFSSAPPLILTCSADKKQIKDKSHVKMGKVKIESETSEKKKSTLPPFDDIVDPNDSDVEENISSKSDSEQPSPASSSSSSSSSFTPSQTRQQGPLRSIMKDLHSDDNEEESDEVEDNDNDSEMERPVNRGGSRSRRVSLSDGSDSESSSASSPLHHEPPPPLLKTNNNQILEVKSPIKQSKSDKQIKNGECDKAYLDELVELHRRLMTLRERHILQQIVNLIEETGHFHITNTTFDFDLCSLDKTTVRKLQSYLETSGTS
ALR H2O2 inh: inhibitors of human sulfhydryl oxidase ALR; P55789; purified ALR, DTT oxidation, H2O2 HRP-luminol luminescence; inhibition, % (test concentration not listed); 290,000 tested, 3.8% active; AID 485317;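 active = mean and each replicate at 75% or more; inconclusive = only one of the two met; inactive = neither met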;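 also: stock transfer was 7.5 nL into about 7.5 µL; 0% = neutral wells and 100% = wells with inactivated enzyme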
Target sequence (P55789 whole entry, looked up): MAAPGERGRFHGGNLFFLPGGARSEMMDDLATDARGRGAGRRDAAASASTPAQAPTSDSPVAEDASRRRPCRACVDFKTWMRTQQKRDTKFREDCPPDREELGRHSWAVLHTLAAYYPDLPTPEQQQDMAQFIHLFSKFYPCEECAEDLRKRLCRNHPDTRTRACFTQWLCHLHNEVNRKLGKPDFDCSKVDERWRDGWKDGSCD
Beta cell apopt: blocks beta cell apoptosis; INS-1E cytokine-induced death, ATP luminescence, 48 h; percent of positive-control rescue, neutral wells zero; protection from apoptosis, % (test concentration not listed); 300,000 tested, 0.8% active;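 active = all replicates at 75% or more, or half of them and the mean; inconclusive = half reach 75% but not the mean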;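 also: 0% = cytokine-treated negative control wells and 100% = positive control rescue; higher means more ATP so stronger rescue from cytokine killing; wells of about 40 µL received 100 nL stock; the first replicate is given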
FGF22 binding: FGF22 (human) thermal shift binding; Q9HCT0; recombinant FGF22 thermal shift, SYPRO orange fluorescence; percent of sucrose octasulfate shift, DMSO zero; calls only at 9.99 µM; 340,000 tested, 1.5% active;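 active = melting point raised past a set limit in the mean and every replicate; inconclusive = no clear call; three in four hits are not shown here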
Target sequence (Q9HCT0 whole entry, looked up): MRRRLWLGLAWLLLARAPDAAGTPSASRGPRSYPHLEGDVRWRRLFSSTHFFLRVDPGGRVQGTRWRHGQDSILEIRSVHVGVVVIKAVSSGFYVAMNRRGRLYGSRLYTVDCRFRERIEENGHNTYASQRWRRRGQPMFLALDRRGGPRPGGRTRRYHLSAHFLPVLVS
T cruzi repl: T. cruzi replication inhibition. T. cruzi beta-gal in NIH3T3, luminescence, 90 h. inhibition, % (test concentration not listed). 300,000 tested, 1.4% active;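 active = mean inhibition across valid replicates above about 55%, limit read from the data; inconclusive = mean below that limit but half or more replicates reach it; inactive = mean below it, under half of replicates reach it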;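 also: signal also drops with host cell toxicity which is not excluded here; 0% = plate median of DMSO wells and 100% = zero luminescence signal; higher percent means less beta-gal luminescence so fewer parasites; stock transfer was 50 nL into about 50 µL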
RanGTP-Impb inh: disruptors of Ran-importin-beta complex formation – biochemical, FRET, CFP-Ran, YFP-importin-beta, homogeneous, primary screen. cell-free CFP-Ran/YFP-importin-beta FRET ratio. 300,000 tested, 1.1% active. inhibition, % (test concentration not listed);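 active = most replicates above 15%; inconclusive = exactly half above 15%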;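 also: 0% = DMSO wells and 100% = Ran loaded with GDP instead of GTP; wells of about 40 µL received 100 nL stock; the first replicate is given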
Ecoli rRNA inh OD600: also measured in Ecoli rRNA inh; calls as there; OD600 change, %; measured here: OD600 growth;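 optical density of the mix in the first replicate; 0 = DMSO median and -100 = no signal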
Ecoli rRNA inh RFP: second read-out of Ecoli rRNA inh, no call of its own (marks repeat the call); RFP signal change, %; measured here: RFP humanized mutant strains;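 first replicate; 0 = DMSO median and -100 = no signal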
Starred values were filed as active, the others as inactive; i = inactive; ? = inconclusive; · = no result given. Some of the compounds tested, so the mix of outcomes need not match the whole.

SMILES	Calb FLC	Ecoli rRNA inh	Ecoli rRNA inh OD600	Ecoli rRNA inh RFP	AF4-AF9 inh	ALR H2O2 inh	Beta cell apopt	FGF22 binding	T cruzi repl	RanGTP-Impb inh
COc1ccc(NC(=O)c2cc3ccccc3cc2OC)cc1OC	16	-14	-20	-1.9	2.3	-2	·	i	-11	0.6
COc1cccc(CN2CCN(c3ncccn3)CC2)c1	-11	·	·	·	·	-11	-7	·	10	-1.7
O=C1CSC(c2cn(-c3ccccc3)nc2-c2cc3ccccc3oc2=O)N1Cc1cccnc1 (stereo not drawn)	10	-5	-7	0.0	10	-8	11	i	2	-0.8
COc1ccccc1-c1coc2c(CN3CCCCC3C)c(O)ccc2c1=O (stereo not drawn)	6	-2	1	-2.7	7.1	1	2	i	0	-0.9
CCCC(=O)Nc1ccc(Cl)c(NC(=O)c2ccco2)c1	41	·	·	·	·	-5	-1	·	2	2.1
CCC(C)(C)C(=O)O	·	-1	1	2.9	·	-3	-2	i	·	·
Cc1cc(C)c(C)c(OCCN2CC(C)OC(C)C2)c1 (stereo not drawn)	2	4	2	6.9	6.1	7	·	i	-23	-2.9
O=C(NCc1ccc(Cl)cc1)c1ccc(-n2cccn2)nc1	25	4	3	1.8	0.3	1	0	i	15	6.2
CCCCC(=O)Nc1nnc(SCC(=O)N2CCN(c3ccccc3OC)CC2)s1	-2	·	·	·	·	-6	-2	·	-9	-4.0
COc1c(Cl)cc(C(=O)Nc2ccccc2-c2ccccc2)cc1Cl	28	·	·	·	·	0	-16	·	15	-6.3
Cc1nc2sc3c(c2c2nnc(SCC(=O)NCc4ccco4)n12)CCCC3	4	·	·	·	·	0	3	·	7	-0.7
Cc1ccc(S(=O)(=O)Nc2ccc3c(c2)C(=O)NC3=O)cc1[N+](=O)[O-]	-1	9	17	-0.3	0.7	-2	-5	i	6	-3.6
CCN(CC)CCCNC(=S)N(CCO)Cc1cc2cc3c(cc2[nH]c1=O)OCCO3	5	20	21	3.4	3.8	-25	-5	i	-15	4.4
O=C1c2ccsc2SCCN1Cc1cccc(Cl)c1	19	·	·	·	·	-7	-3	·	11	3.9
Cc1nc(SC(C)C(=O)NC2CCCCC2C)c2c(C)c(C)sc2n1 (stereo not drawn)	3	-3	5	-2.8	0.4	-9	-4	i	10	2.9
COc1ccc(Cl)cc1NC(=O)CN1CCN(S(=O)(=O)c2ccc(F)cc2)CC1	2	0	2	-0.9	-0.7	0	·	i	28	-3.5
CNC(=S)N1CCn2cccc2C1c1ccc(F)cc1 (stereo not drawn)	-3	5	2	1.2	7.8	6	4	i	-7	-0.8
COc1cc(OC)c2c(-c3ccccc3)cc(=O)oc2c1C(CC(=O)N1CCOCC1)c1ccc(N(C)C)cc1 (stereo not drawn)	6	-4	0	-0.2	20	31	3	i	20	4.3
Cc1ccc(-n2nc3c(=S)[nH]nc(C)c3c2C)cc1	-2	·	·	·	·	6	5	·	-17	-18
Cc1cccc(CCNC(=O)CC2C(=O)NCCN2Cc2ccc(F)c(F)c2)n1 (stereo not drawn)	-7	14	9	1.9	-0.8	-1	-5	·	2	0.3
CCOc1ccc(CNC(=O)CCS(=O)(=O)Cc2cccc(Cl)c2)cc1OC	5	5	6	5.6	-2.0	-4	-1	i	2	1.2
COc1cccc(CSc2nnc(-c3ccc(F)cc3)o2)c1	25	·	·	·	·	-1	-4	·	0	2.1
CCOc1ccccc1/C=N/NC(=O)c1nnn(-c2nonc2N)c1CN1CCCCCC1	1	4	13	1.3	-0.6	0	0	i	2	1.2
Cc1ccc(-n2ncc3c(=O)n(CC(=O)Nc4cccc(Cl)c4)cnc32)cc1C	4	·	·	·	·	-4	-4	·	5	0.5
O=C(NCCCc1ccccc1)c1ccc(F)cc1	-6	·	·	·	·	-4	3	·	9	-0.7
CCN1C(=O)[C@H]2[C@@H](c3ccc(C)cc3)N3C(=O)N(c4ccccc4)C(=O)[C@@]3(Cc3ccccc3)[C@H]2C1=O	6	-2	0	-6.8	-2.0	1	-1	i	1	-1.8
CN(C)c1ccc(CNc2nc3ccccc3s2)cc1	-25	·	·	·	·	-1	-6	·	9	5.0
Cc1nn(-c2ccccc2)c(C)c1C(=O)OCC(=O)c1c(N)n(CC(C)C)c(=O)n(C)c1=O	27	·	·	·	·	0	37	·	38	0.2
CCCC(C)C(=O)Nc1nnc(CCc2ccccc2)s1 (stereo not drawn)	-2	0	2	-3.9	-13	·	·	i	8	-0.1
COc1ccc(CCNC(=O)c2cc(-c3ccccn3)nc3c(Cl)cccc23)cc1OC	29	26	19	4.3	-1.8	6	12	i	13	24*
Cc1ccc(C(=O)c2cc3c(cc2N)OCCO3)cc1	4	-4	-7	-3.0	10	·	-7	i	-14	-1.9
CN1CCN(S(=O)(=O)c2ccc3c(c2)NC(=O)CS3)CC1	3	6	12	-0.8	-4.8	-5	-4	i	10	-3.0
COc1cc(/C=N/NC(=O)CNC(=O)c2ccccc2)ccc1OC(=O)c1cccs1	-71	·	·	·	·	-6	0	·	10	3.7
O=C(Nc1cc(Cl)ccc1O)c1cc2n(n1)C(C(F)(F)F)CC(c1ccc3c(c1)OCO3)N2 (stereo not drawn)	8	·	·	·	·	7	8	·	2	4.8
CC1(O)C(=O)C=C2C=C(c3ccsc3)OC=C2C1=O (stereo not drawn)	10	·	·	·	·	-26	-5	·	-20	-2.8
CN1Cc2c(N3CCOCC3)nc3sc(C(=O)c4ccc(Br)cc4)c(N)c3c2CC1(C)C	73	-18	-11	-0.1	30*	-22	48	i	23	-3.3
C=CCN(c1ccccc1)S(=O)(=O)c1cccc(C(=O)Nc2nc3ccccc3[nH]2)c1	18	·	·	·	·	28	46	·	26	?
CC1COc2ccccc2N1C(=O)c1ccc(Cl)nc1 (stereo not drawn)	13	17	2	-1.7	0.7	-9	2	i	-11	?
COc1ccccc1N1C(=O)C2C3C=CC(C3)C2C1=O (stereo not drawn)	-2	·	·	·	·	-6	-2	·	2	-1.3
C/C(N)=C(/C#N)C(=O)COc1ncnc2ccc(Br)cc12	-8	·	·	·	·	-8	-2	·	-4	1.6
COCc1cc(=O)[nH]c(/N=C(\N)Nc2cccc(Cl)c2)n1	-3	7	20	1.5	0.6	13	-3	i	12	-3.0
CCc1ccccc1NC(=O)CN(C)C(=O)c1cc(C2CC2)nn1-c1ccccc1	·	-2	-16	3.8	-2.4	·	-8	i	·	·
CCNC(=O)NCCNC(=O)c1cc(OCC(F)(F)F)ccc1OCC(F)(F)F	1	-18	-13	1.5	0.2	-4	-9	i	1	-0.7
CSc1nc(NCC(C)C)nc(N2CCOCC2)n1	-22	·	·	·	·	10	-11	·	9	1.7
Cc1ccc(C(=O)Nc2cccnc2)cc1S(=O)(=O)N1CCCCCC1	6	-4	-8	7.2	2.1	-3	-2	i	-6	-4.1
O=S(=O)(O)c1ccc(N2N=C(c3ccccc3)CC2c2ccccc2)cc1 (stereo not drawn)	3	5	3	0.2	-7.3	99*	2	i	5	?
Cc1ccnc2nc(C(=O)NCc3ccccc3)nn12	-5	4	0	-0.5	-2.6	1	1	i	-5	-2.2
CCOC(=O)C1CCCN(C(=O)C2CCN(S(=O)(=O)c3ccc4ccccc4c3)CC2)C1 (stereo not drawn)	-11	·	·	·	-3.3	-3	-3	i	17	3.1
CCCOc1ccccc1N/C(N)=N/c1nc(C)cc(C)n1	-31	6	4	0.4	1.2	-20	11	i	26	?
COc1cc(NC(=O)c2cc(Br)cc(C)c2OC)ccc1NC(=O)C(C)C	7	9	0	-0.6	-1.9	-2	2	i	5	-1.0

New compounds follow
SMILES	Calb FLC	Ecoli rRNA inh	Ecoli rRNA inh OD600	Ecoli rRNA inh RFP	AF4-AF9 inh	ALR H2O2 inh	Beta cell apopt	FGF22 binding	T cruzi repl	RanGTP-Impb inh
Cc1cc(C)nc(NNS(=O)(=O)c2ccc(F)c(Cl)c2)n1	2	11	15	2.6	-3.1	-32	-3	i	-3	-2.2
Cc1ccc(S(=O)(=O)/N=C(/NC(=S)Nc2c(C)n(C)n(-c3ccccc3)c2=O)c2ccccc2)cc1	-6	8	2	-0.9	-47	0	-9	i	-6	0.7
Cc1ccc(-n2nc3c(=O)n(CCCC(=O)N4CCC(C(N)=O)CC4)nc(C)c3c2C)cc1	6	2	-1	0.1	-11	·	-7	i	-13	-2.3
COc1ccccc1/C=C1\SC(=S)N(CC(=O)Nc2nnc(C)s2)C1=O	?	11	7	2.9	-2.1	14	98*	i	9	0.5
CC(C)C(NC(=O)C1CCCCC1)C(=O)NCc1ccccn1 (stereo not drawn)	-5	·	·	·	·	0	-2	·	-3	1.8
COc1ccc(C(=O)NC(=S)Nc2ccc(S(=O)(=O)Nc3cc(OC)nc(OC)n3)cc2)cc1	-4	7	-18	6.6	-0.1	32	-5	i	3	4.7
COc1ccc2[nH]c(=O)c(C(c3nnnn3CC3CCCO3)N3CCc4ccccc4C3)cc2c1 (stereo not drawn)	6	8	18	0.2	·	-10	·	·	6	-1.0
COC(=O)CCC(=O)OC1(C)C(=O)C=C2C=C(C3CC3)N(CCCOC(C)C)C=C2C1=O (stereo not drawn)	3	·	·	·	·	32	-7	·	-2	-0.3
Cc1ccccc1-c1cc(C(=O)n2cccn2)c2cc(Cl)ccc2n1	-22	·	·	·	·	19	2	·	-4	-1.2
CC(=O)c1cccc(N(C(=O)Cn2nnc3ccccc32)C(C(=O)NCc2ccccc2)c2ccccn2)c1 (stereo not drawn)	-8	·	·	·	·	-4	-7	·	1	?
Cc1occc1-c1nnc(SCC(=O)NCc2ccc3c(c2)OCO3)n1CC(C)C	-9	·	·	·	·	-5	-5	·	-2	1.6
CCOc1ccc2[nH]c(=O)c(C(c3nnnn3Cc3ccco3)N3CCN(C)CC3)cc2c1 (stereo not drawn)	-1	3	9	4.2	1.3	-25	0	i	-12	-2.6
O=C(NNS(=O)(=O)c1ccc(CCCl)cc1)C(O)(c1ccccc1)c1ccccc1	-19	·	·	·	·	9	-7	·	3	-0.3
Cc1cc(NC(=O)CCN2C(=O)C3C4CCC(C4)C3C2=O)cc(C)c1Br (stereo not drawn)	-7	·	·	·	·	-4	-19	·	5	-0.1
COc1ccccc1OCc1ccc(C(=O)N(C)c2ccccc2)o1	28	-16	-13	10	1.1	9	-13	i	10	-1.0
Cc1cccc(CCNC(=O)c2cccc(NC3=NC4CS(=O)(=O)CC4S3)c2)c1 (stereo not drawn)	-16	3	3	0.7	5.3	-4	0	i	-8	0.9
O=C(NCCc1nnc2ccc(NCc3cccnc3)nn12)c1ccccc1F	1	3	6	-3.3	1.6	-3	-4	i	1	5.6
CCO[C@@H]1OC(C(=O)NCc2ccccc2)=C[C@H](C2CCCCC2)[C@H]1CCCO	11	-7	-9	3.1	-1.2	-5	-2	i	-3	-1.5
Cc1ccc(CN=C(N)Nc2nc(C)cc(C)n2)cc1	11	9	3	-1.0	4.2	·	9	·	19	0.3
COCc1ccc(C(=O)N2CCCC(C(=O)c3ccc(Cl)cc3C)C2)o1 (stereo not drawn)	9	-26*	-15*	1.2*	-0.3	3	·	i	-19	5.1

Compound activity: PubChem BioAssay, Broad Institute
